GIV Gai3 FP: inhibitors of GIV GBA-motif binding to rat Galpha-i3; P08753; Galpha-i3/FITC-GIV peptide fluorescence polarization, 90 min; stronger effect = lower value; scaled: aluminum fluoride 0%, vehicle 100%; percent of control (FP), % (test concentration not listed); 210,000 tested, 0.42% active; AID 1224905;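 active = replicate mean at 85% of control or lower, very high polarization wells dropped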;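 note: wells of about 15 µL received 100 nL stock; the first replicate is given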
Target sequence (P08753 whole entry, looked up): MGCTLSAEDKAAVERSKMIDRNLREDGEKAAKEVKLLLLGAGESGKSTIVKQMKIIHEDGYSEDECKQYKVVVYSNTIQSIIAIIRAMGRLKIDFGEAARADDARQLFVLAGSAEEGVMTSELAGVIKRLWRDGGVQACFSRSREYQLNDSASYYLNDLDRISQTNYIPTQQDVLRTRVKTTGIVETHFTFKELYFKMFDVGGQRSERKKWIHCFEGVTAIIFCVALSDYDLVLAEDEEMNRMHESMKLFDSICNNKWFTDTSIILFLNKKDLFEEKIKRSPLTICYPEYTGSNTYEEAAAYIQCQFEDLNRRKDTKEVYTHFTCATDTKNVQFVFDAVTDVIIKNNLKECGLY
Sa growth 42C: blocks Staphylococcus aureus growth | S. aureus RN4220 growth, OD600, 20 h, 42 °C; stronger effect = lower value | relative growth, % (no concentration beside the values) | 170,000 tested, 0.53% active;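 active = growth at 42 °C up to 50% and 20 or more points under that at 30 °C, or under 10% at both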;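 note: 300 nL library stock went into each well; scaled to the means of positive and negative controls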
HCMV NEC inh: disrupts HCMV UL50-UL53 complex binding; HTRF UL50-UL53 interaction, normalized percent inhibition; inhibition, % (test concentration not listed); 190,000 tested, 0.15% active; AID 1918969;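 active = both replicates at 50% or more, plus weaker picks with an unusually low signal ratio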;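 note: stock transfer was 100 nL into about 20 µL; 0% = negative control wells and 100% = wells with untagged competitor protein; inactives centre near -12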
Sa growth 42C second temp: further read-out of Sa growth 42C, marked with its call; relative growth, %; measured here: growth at 30 °C;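 optical density after 20 h as mean of two plates; 100% = untreated growth and lower means inhibition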
The depositor's hits bear a star; & = joins results of further samples.

What do the screens show for `Cc1cccc(N2CCN(C(=O)CN3C(=O)c4ccccc4C3=O)CC2)c1C`?
Sa growth 42C: 95; HCMV NEC inh: -20; Sa growth 42C second temp: 75

Results for CN(CCC#N)S(=O)(=O)c1ccc2[nH]cc(C(=O)O)c(=O)c2c1 ?
GIV Gai3 FP: 102; Sa growth 42C: 103; Sa growth 42C second temp: 85

Results for CCN(CC)c1nc(N)c2c(N)nc3c(c2c1C#N)CC(c1ccccc1)O3 (stereo not given) ?
Sa growth 42C: 93; HCMV NEC inh: 7; Sa growth 42C second temp: 95

Results for Cc1ccc(-c2nnc(-c3cc4c(ccc5ccccc54)oc3=O)o2)cc1 ?
GIV Gai3 FP: 110; Sa growth 42C: 95; HCMV NEC inh: -15; Sa growth 42C second temp: 79

Results for CCOC(=O)C1=C(C)Nc2nnnn2C1c1ccc(OC)cc1 (stereo not given) ?
GIV Gai3 FP: 104; HCMV NEC inh: -7

Results for CCOC(=O)N1CCN(C(=O)c2ccc3c(c2)sc2nc(-c4ccc(OC)cc4)cn23)CC1 ?
GIV Gai3 FP: 100; Sa growth 42C: 87; Sa growth 42C second temp: 63

What do the screens show for `Cc1cc(SCC(=O)NN2CCOCC2)nc(C(C)C)n1`?
GIV Gai3 FP: 96; Sa growth 42C: 88; HCMV NEC inh: -21; Sa growth 42C second temp: 89

How did Cc1ccccc1C1CC(=O)c2c(C)nc(N3CCc4ccccc43)nc2C1 (stereo not given) do in these assays?
GIV Gai3 FP: 103; HCMV NEC inh: -8

What do the screens show for `COc1ccc(COC(=O)C2=C(C)NC3(O)c4ccccc4C(=O)C23O)cc1` (stereo not given)?
GIV Gai3 FP: 102; Sa growth 42C: 101; HCMV NEC inh: 14; Sa growth 42C second temp: 71

What do the screens show for `NC(=O)C1CCN(CC(O)COc2ccc(Br)cc2)CC1` (stereo not given)?
GIV Gai3 FP: 103; Sa growth 42C: 126; HCMV NEC inh: -23; Sa growth 42C second temp: 91

How did COc1ccc(CCNC(=O)c2ccc(Cn3c(=O)c4ccccc4n(Cc4ccc(C)cc4)c3=O)cc2)cc1OC do in these assays?
GIV Gai3 FP: 100; Sa growth 42C: 94; HCMV NEC inh: -4; Sa growth 42C second temp: 90

How did CC(C)C(=O)n1nc(-c2cccnc2)nc1NCc1cccs1 do in these assays?
GIV Gai3 FP: 102; Sa growth 42C: 89; Sa growth 42C second temp: 89

What do the screens show for `O=C(/C=C/c1ccccc1)NCC1COc2ccccc2O1` (stereo not given)?
GIV Gai3 FP: 106; Sa growth 42C: 85; HCMV NEC inh: -2; Sa growth 42C second temp: 92

Results for Cc1ccc(S(=O)(=O)c2nc(S(=O)(=O)c3ccc(C)cc3)c(NCc3ccco3)s2)cc1 ?
GIV Gai3 FP: 103; Sa growth 42C: 96; Sa growth 42C second temp: 83

How did CCCNC(=O)CCC(=O)N1Cc2ccccc2Oc2ncccc21 do in these assays?
GIV Gai3 FP: 104; Sa growth 42C: 102; Sa growth 42C second temp: 102

What do the screens show for `COc1ccc(C(=O)NCCn2cc(SCc3c(F)cccc3Cl)c3ccccc32)cc1`?
GIV Gai3 FP: 99; Sa growth 42C: 82; HCMV NEC inh: 0; Sa growth 42C second temp: 86

How did Cc1nc(NC2CCCCC2)c2c(C)noc2n1 do in these assays?
GIV Gai3 FP: 100; HCMV NEC inh: -27

Results for C=CCNC(=O)C1CC(=O)N(c2ccc(OCC(=O)Nc3cc(C)cc(C)c3)cc2)C1 (stereo not given) ?
Sa growth 42C: 91; HCMV NEC inh: -1; Sa growth 42C second temp: 92

How did C=CCOc1c(Br)cc(CNCCCN2CCOCC2)cc1OC do in these assays?
GIV Gai3 FP: 103; Sa growth 42C: 103; HCMV NEC inh: -13; Sa growth 42C second temp: 84

Results for Cc1ccc(-c2csc3nc(CNCCN(C)C)[nH]c(=O)c23)cc1 ?
Sa growth 42C: 120; HCMV NEC inh: -1; Sa growth 42C second temp: 93

How did CCC(C)NC(=O)CSc1cc(=O)n(C)c2ccccc12 (stereo not given) do in these assays?
GIV Gai3 FP: 104; Sa growth 42C: 102; HCMV NEC inh: -6; Sa growth 42C second temp: 86

How did COC(=O)c1cc(NC(=O)Cn2ncc3c2-c2ccccc2OC3)cc(C(=O)OC)c1 do in these assays?
GIV Gai3 FP: 104; Sa growth 42C: 93; HCMV NEC inh: -40; Sa growth 42C second temp: 78

Results for Cc1ccccc1OC(=O)c1snnc1C ?
GIV Gai3 FP: 98; Sa growth 42C: 96; HCMV NEC inh: -18; Sa growth 42C second temp: 84

Results for COCCN=c1scc(-c2ccco2)n1/N=C/c1ccc(OC)cc1 ?
Sa growth 42C: 98; HCMV NEC inh: -32; Sa growth 42C second temp: 88

Results for CN(CCCNC(=O)c1nc(-c2nn(-c3ccc(F)cc3)c(=O)n(C)c2=O)no1)C1CCCCC1 ?
GIV Gai3 FP: 101; HCMV NEC inh: -77

How did CCOC(=O)c1c(NC(=O)Cc2coc3cc(C)ccc23)sc2c1CCCC2 do in these assays?
GIV Gai3 FP: 111; Sa growth 42C: 94; HCMV NEC inh: 8; Sa growth 42C second temp: 90

How did CCOc1ccc(C(=O)NC2CC(=O)N(c3ccc(C)cc3)C2)cc1OCC (stereo not given) do in these assays?
GIV Gai3 FP: 96; Sa growth 42C: 117; Sa growth 42C second temp: 81

What do the screens show for `O=S(=O)(c1ccc(F)cc1)N1CCN(c2ccc(F)cc2)CC1`?
GIV Gai3 FP: 102; HCMV NEC inh: 4

Results for COc1cccc2c1Oc1ncccc1N(C(=O)CCC(=O)NCc1ccc(N(C)C)cc1)C2 ?
GIV Gai3 FP: 103; Sa growth 42C: 81; Sa growth 42C second temp: 77

How did C=CCNC(=O)CN1C(=O)COc2ccc(C(=O)N(C)C)cc21 do in these assays?
GIV Gai3 FP: 99; HCMV NEC inh: -17

Results for CC(C)NC(=S)N(CCc1ccncc1)C(C)C ?
GIV Gai3 FP: 102; Sa growth 42C: 104; Sa growth 42C second temp: 94

How did O=C(O)COc1ccccc1O do in these assays?
Sa growth 42C: 92; HCMV NEC inh: -10; Sa growth 42C second temp: 89

Results for Cc1[nH]n(-c2ccccc2)c(=O)c1C=Nc1cc(C(C)(C)C)cc(C(C)(C)C)c1O ?
GIV Gai3 FP: 103; HCMV NEC inh: -7

How did N/C(=N\C(=S)Nc1ccccc1)N1CCOCC1 do in these assays?
GIV Gai3 FP: 98; Sa growth 42C: 97; HCMV NEC inh: 11; Sa growth 42C second temp: 94

What do the screens show for `O=c1c2nnn(-c3ccc(Cl)cc3)c2ncn1CCN1CCCCC1`?
GIV Gai3 FP: 105; Sa growth 42C: 112; HCMV NEC inh: -25; Sa growth 42C second temp: 85

How did CCOC(=O)c1c(NC(=O)c2c(Br)cnn2C)c(C#N)nn1-c1ccccc1 do in these assays?
GIV Gai3 FP: 107; Sa growth 42C: 102; HCMV NEC inh: -3; Sa growth 42C second temp: 96

Results for CCOC(=O)N1CCN(C(=O)CN(c2ccc(Cl)c(C(F)(F)F)c2)S(=O)(=O)c2ccc(C)cc2)CC1 ?
GIV Gai3 FP: 101; HCMV NEC inh: -15

Results for Cc1ccc(N=Cc2ccc3ncccc3c2)c(F)c1 ?
Sa growth 42C: 118; HCMV NEC inh: -54; Sa growth 42C second temp: 76

How did COc1ccc(NC(=O)c2cn(-c3ccccc3)nc2-c2ccc(C)cc2)cc1 do in these assays?
GIV Gai3 FP: 102; Sa growth 42C: 93; HCMV NEC inh: -47; Sa growth 42C second temp: 88

How did COc1ccc2cc3cc(C(=O)NCC4CCN(Cc5cccc(C)c5)CC4)oc3nc2c1 do in these assays?
GIV Gai3 FP: 98; Sa growth 42C: 110; HCMV NEC inh: -79; Sa growth 42C second temp: 91

How did CCC(Sc1nnc(-c2cc(C)ccc2NC(C)=O)c(=O)[nH]1)C(=O)Nc1ccc(C)c(Cl)c1 (stereo not given) do in these assays?
GIV Gai3 FP: 98; HCMV NEC inh: -28

What do the screens show for `COc1ccc(Br)cc1CNC(=O)C1CCCN(c2nc3ccccc3o2)C1` (stereo not given)?
GIV Gai3 FP: 107; Sa growth 42C: 88; Sa growth 42C second temp: 83

Results for CCOC(=O)c1c(NC(=O)COC(=O)C2CCC(=O)N2)sc2c1CCCC2 (stereo not given) ?
Sa growth 42C: 101; HCMV NEC inh: -31; Sa growth 42C second temp: 96

What do the screens show for `COC(=O)c1ccc2c(c1)N(Cc1ccc(Cl)cc1)C(=O)c1ccccc1S2(=O)=O`?
GIV Gai3 FP: 98&103; Sa growth 42C: 105; HCMV NEC inh: 8; Sa growth 42C second temp: 93

Results for CCCCOc1ccc(C(=O)Nc2cccc(-c3nc4ccccc4o3)c2C)cc1 ?
GIV Gai3 FP: 103; Sa growth 42C: 121; HCMV NEC inh: -4; Sa growth 42C second temp: 94

Results for Cc1ccc(NC(=O)CCC(=O)N2CCSc3ccccc32)cc1Cl ?
GIV Gai3 FP: 101; Sa growth 42C: 101; Sa growth 42C second temp: 92

How did CCc1nc2nc(-c3ccc(C)cc3)cc(=O)n2[nH]1 do in these assays?
GIV Gai3 FP: 104; HCMV NEC inh: -5

What do the screens show for `CCOC(=O)C1CC(CC2OCCO2)=NO1` (stereo not given)?
Sa growth 42C: 105; HCMV NEC inh: -6; Sa growth 42C second temp: 89

Results for Cn1c(=O)c2sccc2n2c(CCCC(=O)NCc3ccc4c(c3)OCO4)nnc12 ?
GIV Gai3 FP: 98; Sa growth 42C: 88; HCMV NEC inh: -34; Sa growth 42C second temp: 85

How did Cc1ccc(S(=O)(=O)N(CC(=O)Nc2cccnc2)c2cc(Cl)ccc2C)cc1 do in these assays?
GIV Gai3 FP: 102; Sa growth 42C: 95; HCMV NEC inh: 0; Sa growth 42C second temp: 82

Already shown: entries from further up.
Results for CCCCOc1ccc(C(=O)Nc2cccc(-c3nc4ccccc4o3)c2C)cc1 ?
GIV Gai3 FP: 103; Sa growth 42C: 121; HCMV NEC inh: -4; Sa growth 42C second temp: 94

Results for Cc1ccc(NC(=O)CCC(=O)N2CCSc3ccccc32)cc1Cl ?
GIV Gai3 FP: 101; Sa growth 42C: 101; Sa growth 42C second temp: 92

How did CCc1nc2nc(-c3ccc(C)cc3)cc(=O)n2[nH]1 do in these assays?
GIV Gai3 FP: 104; HCMV NEC inh: -5

What do the screens show for `CCOC(=O)C1CC(CC2OCCO2)=NO1` (stereo not given)?
Sa growth 42C: 105; HCMV NEC inh: -6; Sa growth 42C second temp: 89

Results for Cn1c(=O)c2sccc2n2c(CCCC(=O)NCc3ccc4c(c3)OCO4)nnc12 ?
GIV Gai3 FP: 98; Sa growth 42C: 88; HCMV NEC inh: -34; Sa growth 42C second temp: 85

How did Cc1ccc(S(=O)(=O)N(CC(=O)Nc2cccnc2)c2cc(Cl)ccc2C)cc1 do in these assays?
GIV Gai3 FP: 102; Sa growth 42C: 95; HCMV NEC inh: 0; Sa growth 42C second temp: 82

Carrying on.
How did Cc1ccc(C(=O)c2oc3ccccc3c2NC(=O)c2ccco2)cc1 do in these assays?
GIV Gai3 FP: 103; Sa growth 42C: 94; Sa growth 42C second temp: 81

How did O=C(Nc1cccc(Cl)c1)Nc1nc(-c2ccccc2)cs1 do in these assays?
GIV Gai3 FP: 112; HCMV NEC inh: 13

How did Cn1c(=O)c2ccc(C(=O)NC3CCCC3)cc2n2c(=S)[nH]nc12 do in these assays?
GIV Gai3 FP: 99; HCMV NEC inh: -52

What do the screens show for `CCc1ccc(NC(=O)c2ccnc(-n3cnnc3)c2)cc1`?
GIV Gai3 FP: 105; Sa growth 42C: 82; HCMV NEC inh: -26; Sa growth 42C second temp: 76

How did COc1ccc(C2CC(=O)NC(SCC(=O)OC(C)C)=C2C#N)cc1OCc1ccccc1 (stereo not given) do in these assays?
GIV Gai3 FP: 99; HCMV NEC inh: -13

What do the screens show for `CCOC(=O)c1cnc(Nc2nc3ccccc3o2)nc1C`?
GIV Gai3 FP: 106; Sa growth 42C: 92; HCMV NEC inh: -31; Sa growth 42C second temp: 87

What do the screens show for `Cc1nn(CC(=O)N2CCN(c3ccccn3)CC2)c(=O)c2cccn12`?
GIV Gai3 FP: 98; HCMV NEC inh: -21

Results for CC(C)N1CC(O)=C(c2nc(-c3ccc(F)cc3)cs2)C1=N ?
Sa growth 42C: 88; HCMV NEC inh: -12; Sa growth 42C second temp: 90

How did COc1ccc(NC(=O)C2CCCN(S(=O)(=O)c3ccc4[nH]c(=O)ccc4c3)C2)cc1OC (stereo not given) do in these assays?
GIV Gai3 FP: 105; Sa growth 42C: 111; Sa growth 42C second temp: 89

Results for CCCNC(=O)C1CCC(Cn2c(=O)c3sccc3n(CC(=O)N3CCC(C)CC3)c2=O)CC1 (stereo not given) ?
GIV Gai3 FP: 97; Sa growth 42C: 78; Sa growth 42C second temp: 91

What do the screens show for `COc1ccc(-c2nc(CS(=O)CC(=O)NCC3CCCO3)c(C)o2)cc1` (stereo not given)?
GIV Gai3 FP: 107; Sa growth 42C: 113; Sa growth 42C second temp: 82

What do the screens show for `O=C(CSc1ccccc1)NN1C(=O)c2ccccc2C1=O`?
GIV Gai3 FP: 106; Sa growth 42C: 120; HCMV NEC inh: -23; Sa growth 42C second temp: 102

What do the screens show for `CCc1c(C)nc2ncnn2c1Nc1cc(Cl)c(OC)cc1OC`?
GIV Gai3 FP: 101; Sa growth 42C: 103; HCMV NEC inh: -20; Sa growth 42C second temp: 84

This is a random part of the collection, and some 0.83% of all compounds hit somewhere here.
